High-throughput results as filed in PubChem BioAssay.
AID504770 = growth inhibitors of E. coli YBA685 in a screen for V. cholerae RctB (chromosome II replication) inhibitors. E. coli YBA685 rctB-dependent plasmid, OD600 growth, 3 h; hits give low values. z-score (concentration not given with the values). AID 504770. actives 0.27% (n = 130,000);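 active = z-score under -2 on both plates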;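 note: wells of about 30 µL received 100 nL stock; score is relative to mean and SD of the test wells; the first replicate is given; strong numbers were not always called active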
Ba CapD inh = blocks the Bacillus anthracis CapD enzyme; purified CapD enzyme, fluorescence intensity read-out; hits give low values; some hits fall short of the stated cut; z-score (test concentration not listed); actives 0.23% (n = 140,000); AID 492967;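 active = z-score under -4 in either of two replicates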;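 note: stock transfer was 100 nL into about 40 µL; score is relative to mean and spread of the plate; one replicate is shown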
* hit, by the source's call; nt = no result given; & = joins results of further samples.

Molecule,AID504770,Ba CapD inh
Cc1c(C(=O)NC2CCCCC2)c(C)n2cnn(CC(=O)NCCCN3CC(C)CC(C)C3)c(=O)c12 (centres undefined),0.55,2.9
Cc1ccccc1-n1c(=O)c2c(n3cnnc13)-c1ccccc1CC21CCCCC1,nt,-0.76
O=C(CSc1nnnn1-c1ccc2c(c1)OCCO2)c1ccc2c(c1)OCCO2,-0.4,nt
CC(C)NC(=O)N(Cc1ccccc1)Cc1cccs1,-0.1,2.7
O=C(NC(=O)c1ccccc1O)c1ccc(F)cc1,0.15,0.1
Cc1cc(C)c2c(c1)C(=O)CCC2,0.05,nt
CC1CCCN(S(=O)(=O)c2ccc(NC(=O)CSc3nc4ccccc4o3)cc2)C1 (centres undefined),0.1,nt
N#CC(CC(=O)c1cccs1)c1ccccc1 (centres undefined),-0.6,0.1
Cn1cc(C(F)(F)F)ccc1=S,-0.05,nt
COc1ccc(C2C3=C(Nc4ncnn42)c2ccccc2CCC3)cc1 (centres undefined),-0.55,nt
C1CCC(NC2=NCCC2)CC1,0.2,-0.12
CCc1ccc(NC2c3ccccc3C(=O)N2c2ccccc2C)cc1 (centres undefined),0.75,0.26
Nc1nc(SCc2nc(-c3ccccc3)no2)n[nH]1,-1.1,10
COc1cccc2sc(NC(=O)c3ccccc3NS(=O)(=O)c3ccc(C)cc3)nc12,nt,24
COC(=O)c1oc2c(c1C)C(=O)CCC2,-0.65,nt
COc1cc2c(cc1OC)C(=NC(C)C(=O)O)NC(C)(C)C2 (centres undefined),0.3,26
O=C(CN1C2=NCCN2c2ccccc21)c1ccco1,0.45,nt
Cc1ccn(CCC(=O)O)n1,-0.7,0.56
CC(Oc1cccc(Cl)c1)C(=O)N(C)Cc1nc(-c2ccccc2)no1 (centres undefined),-0.5,-0.14
O=C(O)C1CCN(C(=O)c2csc(-c3ccc4c(c3)CCO4)n2)CC1,-0.4,4
COC(=O)C1=CN(CCOC23CC4CC(CC(C4)C2)C3)C=C(C(=O)OC)C1c1ccc2c(c1)OCO2,nt,35
CCOC(=O)c1ccccc1NC(=O)Cn1c(=O)n(-c2cc(C)cc(C)c2)c(=O)c2sccc21,-0.2,0.9
O=C(CSc1nnc(-c2cccs2)o1)N1c2ccccc2OCC1c1ccccc1 (centres undefined),-0.75,nt
COc1ccc(C2CC(=O)N3C(=C2C#N)SCC3(O)c2ccccc2)cc1 (centres undefined),-1.3,-0.99
CCC1(C)Cc2ccccc2-c2nc(-c3ccccc3)n(CCO)c(=O)c21 (centres undefined),1.9,-0.01
O=C(Nc1ccccc1)N1CCC(Nc2cccc(S(=O)(=O)C(F)(F)F)c2)CC1,nt,-0.15
O=C1c2ccccc2-c2c(-c3ccccc3)sc(=O)n21,0.3,0.59
Cc1cc(NC(=O)/C(C#N)=C/c2ccc(Cl)cc2)n(-c2ccccc2)n1,0.1,nt
COC(=O)C1=C(N)n2c(s/c(=C/c3ccccc3OC)c2=O)=C(C(=O)OC)C1c1ccccc1OC (centres undefined),nt,-0.23
Cc1nn(C(C)(C)C)c(OC(=O)c2cccs2)c1Sc1ccccc1,0.3,0.26
CCN(CC)S(=O)(=O)c1cccc(-c2nnc(SCC#N)n2Cc2ccccc2)c1,-0.5,nt
O=C(OCc1cc2cccc3c2n(c1=O)CCC3)c1cccs1,nt,1.6
COC(=O)c1cc(C(=O)OC)cc(N2C(=O)CSC2c2ccc(F)c(F)c2)c1 (centres undefined),nt,-1.6
COc1ccccc1NC(=O)c1cc2ccccc2oc1=O,-0.15,-0.07
Cc1cc(C)c(CSC(=N)N)c(C)c1CSC(=N)N,-0.1,0.025&-0.12
O=C(CCSc1ccccc1)Nc1ccc(S(=O)(=O)NCc2ccco2)cc1,-0.1,nt
Brc1ccc(C2=Nn3cnnc3SC2)cc1,nt,-0.78
O=C(CSCc1ccccc1)Nc1nnc(SCc2ccccc2)s1,-0.8,-0.5
CCNC(=S)N1CCC(C(=O)c2ccc(Cl)cc2)CC1,-0.2,nt
Cc1ccc(NC(=O)N(CCC(=O)O)Cc2ccccc2)cc1,-0.4,-0.22
Brc1ccc2c(c1)C1CC(c3ccccc3)=NN1C(c1ccco1)O2 (centres undefined),-0.05,nt
CCC(=O)Oc1ccc(/C=C/c2ccccc2)cc1OC,0.65,43
COc1cc2c(c(OC)c1OC)C(=O)CC2,nt,0.075
CN(C)c1cc(-c2ccccc2)oc(=O)c1Cl,-1.1,-1.2
O=C1C=C2C3CCN(CC3)C2CC1 (centres undefined),-0.3,nt
Cn1c(=O)cc(OCCCC(=O)O)c2ccccc21,0.8,1
COc1cc(OC)cc(C(=O)Nc2cc(C)nn2-c2ccccc2)c1,-0.6,-0.045
COc1ccc(C(C#N)N2N=C(C)CC2c2ccccc2)cc1 (centres undefined),-0.1,0.55
O=C(CSCC(=O)Nc1ccc2nc(SCC(=O)NC3CC3)sc2c1)Nc1ccc2ccccc2c1,nt,0.68
O=C(CSc1ccccn1)NC(=O)c1ccccc1,-0.55,0
CC1CCCCN1C(=O)C1CCCN(S(=O)(=O)c2ccccc2)C1 (centres undefined),-0.45,nt
CC(C)(C)c1ccc(-c2nnnn2Cc2c(Cl)cccc2Cl)cc1,nt,-0.35
O=c1oc2cc(O)ccc2cc1-c1nc(-c2ccc3ccccc3c2)cs1,nt,0.13
CCC#CCN(c1ccccc1)c1ccccc1,-0.15,nt
CN1CCN(c2ccc(NC(=O)c3cccc(C(F)(F)F)c3)cc2)CC1,nt,-0.68
Cn1nc(C(=O)N2CCN(S(=O)(=O)c3ccccc3)CC2)c2ccccc2c1=O,-2.1,nt
CC(=O)NN=C1CCC(=NNC(C)=O)CC1,-0.45,0.075
COc1cccc(CNCCCN2CCOCC2)c1OCc1ccc(C)cc1,-0.15,nt
COc1cc(NC(=O)c2ccc(N3CC4CC(C3)c3cccc(=O)n3C4)c(NC(=O)c3ccncc3)c2)cc(OC)c1OC (centres undefined),nt,-0.77
COc1ccc(C2(c3ccc(OC)cc3)NC(=O)N(Cn3nnc4ccccc4c3=O)C2=O)cc1,-0.2,nt

Complete entries as entered above:
Profile of COc1cc(NC(=O)c2ccc(N3CC4CC(C3)c3cccc(=O)n3C4)c(NC(=O)c3ccncc3)c2)cc(OC)c1OC (centres undefined) → AID504770: nt; Ba CapD inh: -0.77
Profile of Cn1c(=O)cc(OCCCC(=O)O)c2ccccc21 → AID504770: 0.8; Ba CapD inh: 1

An excerpt from above in order of molecular weight, ascending.
Molecule,AID504770,Ba CapD inh
CCC#CCN(c1ccccc1)c1ccccc1,-0.15,nt
COc1ccc(C(C#N)N2N=C(C)CC2c2ccccc2)cc1 (centres undefined),-0.1,0.55
CN1CCN(c2ccc(NC(=O)c3cccc(C(F)(F)F)c3)cc2)CC1,nt,-0.68
COc1cc(NC(=O)c2ccc(N3CC4CC(C3)c3cccc(=O)n3C4)c(NC(=O)c3ccncc3)c2)cc(OC)c1OC (centres undefined),nt,-0.77

(list continues)
Molecule,AID504770,Ba CapD inh
CCOC(=O)C1CCC(CNCc2ccccc2C)CC1 (centres undefined),-0.8,2.8
Cc1nn(-c2ccc(Cl)cc2)c2sc(C(=O)NC3=NCCS3)cc12,0.85,nt
CCc1ccc(C(=O)NCc2cccs2)s1,-0.8,0.015
COc1ccc(N=C2SC(C(=O)N3CCN(c4ccc(F)cc4)CC3)CC(=O)N2C)cc1 (centres undefined),nt,0.085
Cc1ccc(N2C(=O)C3CNC4(C(=O)Nc5ccc(Br)cc54)C3C2=O)cc1 (centres undefined),-0.45,nt
CC1CC(C)CN(c2nnc(NC(=O)c3csc4c3CCCC4)s2)C1 (centres undefined),-0.4,0.74
O=c1c(O)cccc2cc(O)c(O)c(O)c12,0.2,nt
COC(=O)c1cc(Cl)cc2c1N[S@](=O)S2,nt,1.2
FC(F)(F)c1cc(NNc2cc(C(F)(F)F)cc(C(F)(F)F)c2)cc(C(F)(F)F)c1,nt,-0.025
COc1ccc(-n2c(-c3ccc(Cl)cc3)cnc2SCc2nccn2C)cc1,-0.25,nt
O=C(NC1CCN(Cc2ccccc2)CC1)c1ccc(-c2cccs2)s1,-0.2,65
O=C1CC(CSc2nnc(-c3ccc(Cl)cc3)n2-c2ccccc2)=NN1,-0.3,nt
O=C(O)CC1(O)c2ccccc2C(=O)N1Cc1ccccc1 (centres undefined),1.6,-0.005
CC1CCCCN1C(=O)c1ccccc1NS(=O)(=O)c1ccc2ccccc2c1 (centres undefined),0.6,-0.075
CC#C[C@]1(O)CC[C@H]2[C@@H]3CCC4=CC(=O)CCC4=C3[C@@H](c3ccc(N(C)C)cc3)C[C@@]21C,nt,-0.92
Cn1c(SCc2nc3ccccc3s2)nnc1-c1cccs1,0.45,-0.08
COc1ccc(N2CCN(/C=C3\C(=O)N(c4ccc(C)cc4)C(=O)c4ccccc43)CC2)cc1,-0.4,nt
CNc1nc(Nc2ccc(OC(F)(F)F)cc2)nc(OCC(F)(F)F)n1,-0.2,0.21
CCCCCCNS(=O)(=O)c1ccc2c(c1)CN(C(=O)C(F)(F)F)CC2,nt,-0.72
O=C(COc1ccc(F)cc1)N(c1ccccn1)C1CCCCC1,0.4,nt
COc1ccc(-c2cc(C(=O)N3CCN(C)CC3)no2)cc1,-0.85,-0.065
CCOC(=O)c1c(C)n(C)c2ccc(OCC)cc12,0,0.29
Cc1ccc(-c2nnc(N3CCOCC3)c3ccccc23)cc1S(=O)(=O)N1CCCCC1,nt,-0.15
COc1cc(/C=N/NC(=O)COc2ncn(-c3ccccc3)n2)cc(O)c1OC,nt,-0.93
O=C1c2ccccc2C(=O)N1CCSc1ccc(Br)cc1,nt,-0.57
CCc1ccc(C(=O)/C=C/Nc2ccc(C)cc2O)cc1,2.3,-0.76
COc1ccc(CNC(=O)NC(C)(C)C)cc1,2.3,nt
CCN(CC)CCOC(=O)C(c1ccccc1)C1CCCCC1 (centres undefined),1,0.43&-0.99
FC(F)(F)c1cccc(-n2c(-c3ccco3)n[nH]c2=S)c1,-0.8,-0.17
CC(C)CC1=NC(C(F)(F)F)(C(F)(F)F)N=C(N2CCCCC2)O1,0.05,-0.045

Carrying on.
Structure,AID504770,Ba CapD inh
CNC(=O)Nc1cc2sccc2nc1C(F)(F)F,nt,-0.32
O=[N+]([O-])c1cc2c3c(c1)C1C=CCC1C(c1ccccc1)N3CC1CC=CC21 (centres undefined),nt,-0.06
CC1CCN(C(=O)COC(=O)CCN2C(=O)S/C(=C\c3cccs3)C2=O)CC1,0.45,nt
C=CCNc1c2c(nc3cc(-c4cc(OC)cc(OC)c4)nn13)CCC2,0.4,nt
CC(=O)N1CCN(C(=O)c2cc(C)nc3ccccc23)CC1,0,nt
CC(C)(C)OC(=O)N1CC=C2C(C#N)=C(N)C(C#N)(C#N)C(c3ccc4c(c3)OCO4)C2C1 (centres undefined),-0.25,nt
COc1ccc(OCCBr)cc1,-0.1,0.24
COc1ccc(N(C(=O)c2ccccc2OC(C)=O)C(C)C2CC2)cc1 (centres undefined),0,nt
Cc1ccccc1N1CC(C(=O)Nc2ccc(S(N)(=O)=O)cc2)CC1=O (centres undefined),-0.45,nt
Cc1ccccc1NC(=O)Nc1ccc(-n2ncnn2)cc1,-0.7,0.47
CC(c1ccccc1)N1CCn2c(nc3cc(NC(=O)c4cccc(Br)c4)ccc32)C1 (centres undefined),0.25,0.32
O=C(CCN1C(=O)C2C3C=CC(C3)C2C1=O)N1CCCCC1 (centres undefined),-0.55,-0.25
CCN(Cc1ccccc1)S(=O)(=O)c1cc(C(=O)Nc2ccccc2Cl)ccc1F,nt,-0.74
COc1ccc(/C=N/S(=O)(=O)c2ccccc2)cc1OC,-1,0.56
CCOC(=O)c1ccc(SC)cc1OC,-0.35,0.17
Nc1ccc(-c2cn3ccccc3n2)cc1,0.05,70
CCN(CC)c1ccc(N=Cc2ccc(O)cc2)cc1,-1.1,-0.51
CC(COC(=O)NNC(=O)c1ccccc1O)c1ccccc1 (centres undefined),nt,8.7
CCCNC(=O)CSc1nc(-c2ccccc2)cc(C(F)(F)F)n1,0.5,nt
O=S(=O)(c1ccc2nc3c(nc2c1)-c1cccc2cccc-3c12)N1CCOCC1,-2.5,nt
COc1cc(/C=C2\C(=O)NC(=O)N(Cc3ccc(F)cc3)C2=O)cc(OC)c1OC,nt,0.22
COc1cc(/C=N/n2cc(-c3ccccc3)[nH]c2=S)cc(OC)c1OC(C)=O,-0.4,nt
O=C(NNC(=O)C1OC2OC3(CCCCC3)OC2C2OC3(CCCCC3)OC12)c1cccc(Cl)c1 (centres undefined),nt,-0.56
O=C(O)CC(NC(=O)Cc1cccc2ccccc12)C(=O)O (centres undefined),-0.35,0.91
Cc1cccc(C(C)C)c1NC(=O)COC(=O)Cc1ccsc1,0.85,-0.31
O=C(CCS(=O)(=O)c1ccc(Cl)cc1)OCc1ccccc1,-0.15,-0.42
COC(=O)c1ccc(CSc2nnc(SCc3ccc(C(=O)OC)o3)s2)o1,-1.2,nt
COc1ccc2nc(NC(=O)c3ccccc3C)sc2c1,-0.7,1.7
Cc1ccc(S(=O)(=O)Nc2ccc3oc4c(c3c2)C(=O)CC(C)(C)C4)c(C)c1,nt,-0.22
COc1cc(C2C(C(=O)Nc3cccc(C)n3)=C(C)NC3=C2C(=O)CCC3)cc(OC)c1OC (centres undefined),nt,12

Only part of the results is shown; count on the stated rates, not on these rows.
